D2 PAM: positive allosteric modulators of human D2 dopamine receptor; P14416; DiscoveRx D2 beta-arrestin cells, luminescence, 90 min; 100% = 57 uM dopamine signal; potentiation, % (no concentration beside the values); 360,000 tested, 0.23% active; AID 624464; active = potentiation of 50% or more; inconclusive = 30% to 50%; inactive = 30% or less;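 note: compound concentration not given in the record; tested on top of an EC20 dose of dopamine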
Target sequence (P14416 whole entry, looked up): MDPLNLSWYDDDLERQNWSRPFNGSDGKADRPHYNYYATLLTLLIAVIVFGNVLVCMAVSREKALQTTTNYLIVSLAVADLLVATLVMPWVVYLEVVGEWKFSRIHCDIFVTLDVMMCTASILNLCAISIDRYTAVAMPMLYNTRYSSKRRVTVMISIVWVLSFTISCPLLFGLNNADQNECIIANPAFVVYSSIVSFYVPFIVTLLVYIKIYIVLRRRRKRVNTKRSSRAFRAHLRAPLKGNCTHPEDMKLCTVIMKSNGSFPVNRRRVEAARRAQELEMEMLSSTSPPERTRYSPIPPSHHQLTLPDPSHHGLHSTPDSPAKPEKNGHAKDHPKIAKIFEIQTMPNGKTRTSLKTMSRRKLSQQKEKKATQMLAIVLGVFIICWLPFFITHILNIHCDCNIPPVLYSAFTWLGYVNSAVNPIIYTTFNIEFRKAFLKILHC
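PathHunter beta-arrestin assay in DiscoveRx D2 cells. Compounds were added with an EC20 of dopamine (50 nM final) for 90 min at 37 deg C. Luminescence was read 1 h after detection reagent, with 57 uM dopamine as the EC100 control.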
PINK1 modulator: changes PINK1 expression | PINK1 immunofluorescence, high-content cytometry, 24 h | Potency, µM (titrated, usually from 76.6 µM), inactives show at the top dose activation (PINK1 increase), usual class: activators | 410,000 tested, 0.2% active | AID 624263; active = well fitted activation curve with a large enough effect; inconclusive = small, poorly fitted or top-dose-only effect; inactive = flat fitted curve, though single readings scatter; cell line not stated here;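 note: potency is the fitted concentration of half-maximal effect; % of control where 0% means no effect; nearly all actives have a fitted effect of over 65% in size; a mitochondrial uncoupler was the plate control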
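Decision-based qHTS: stable cells, 24 h exposure to five compound concentrations, CCCP as control. Fixed cells stained for PINK1 plus nuclear, mitochondrial and cell markers, cytometer read.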
Six1-Eya2 blk: blocks human Six1 binding to Eya2 | Q15475+O00167 | AlphaScreen GST-Six1/His-Eya2 binding, biochemical; active compounds read low; control for the full effect not named in the record | activity change, % (no concentration beside the values) | 360,000 tested, 0.56% active | AID 651725; in the data active = activity change below about -65%; inconclusive = about -30% to -65%; inactive = above about -30%; note: % is set by controls: 0 for no effect and ±100 for the full control effect
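Six1/Eya2 binding was read as AlphaScreen signal after compounds were pinned into GST-Six1 plus His-tagged Eya2 (5X stock 250/500 nM) in pH 8.0 Tris/NaCl/TCEP buffer, beads added, then incubated 1 h, 37 C, dark.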
TRPML1 ag: activates the human TRPML1 channel; Q9GZU1; TRPML1-expressing cells, Ca2+ dye fluorescence, FDSS; host cell line not named in the record; reference of the full effect not given here; activation, % (no concentration beside the values); 410,000 tested, 0.12% active; AID 624414; in the data active = activation above about 50%; inconclusive = about 30% to 50%; inactive = below about 30%; note: 0% is about no effect; the text of the record puts the active cut at 80%
Target sequence (Q9GZU1 whole entry, looked up): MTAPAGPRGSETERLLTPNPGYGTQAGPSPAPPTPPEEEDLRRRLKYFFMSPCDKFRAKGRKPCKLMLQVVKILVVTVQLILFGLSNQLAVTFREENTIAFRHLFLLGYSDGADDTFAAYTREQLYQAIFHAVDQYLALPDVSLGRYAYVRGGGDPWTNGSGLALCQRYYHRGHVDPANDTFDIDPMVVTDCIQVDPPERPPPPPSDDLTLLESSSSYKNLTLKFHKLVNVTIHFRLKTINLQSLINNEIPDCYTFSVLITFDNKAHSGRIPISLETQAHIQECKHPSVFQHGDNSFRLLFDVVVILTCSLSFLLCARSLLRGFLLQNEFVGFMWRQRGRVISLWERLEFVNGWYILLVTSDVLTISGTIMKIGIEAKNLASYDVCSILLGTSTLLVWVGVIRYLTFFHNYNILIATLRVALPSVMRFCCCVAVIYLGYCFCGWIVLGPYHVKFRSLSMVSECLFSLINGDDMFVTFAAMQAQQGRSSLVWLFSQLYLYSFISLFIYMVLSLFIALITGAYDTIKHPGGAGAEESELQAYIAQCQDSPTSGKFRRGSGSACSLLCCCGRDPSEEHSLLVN
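Tetracycline-induced TRPML1-DL cells are seeded and incubated overnight before loading with a no-wash Ca2+ dye and quencher. Agonist activity is taken from the 110 s fluorescence read following compound pin-transfer on an FDSS, before EC80 54-4 challenge.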
D2 agonist: activates the human D2 dopamine receptor | P14416 | DiscoveRx PathHunter D2 beta-arrestin, luminescence, 90 min; 100% = 57 uM dopamine signal | activation, % (test concentration not listed) | 360,000 tested, 0.084% active; in the data active = activation above about 40%; inconclusive = about 15% to 40%; inactive = below about 15%; note: compound concentration not given in the record; the text of the record calls up to 30% inactive
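DiscoveRx PathHunter D2 beta-arrestin cells (2,100/well) attached overnight, then compound-stimulated 90 min at 37 C in HBSS/10 mM HEPES/0.1% Tween-20 buffer; beta-galactosidase complementation read by luminescence after 1 h at ambient temperature. Dopamine 57 uM final (EC100) as control.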
TRPML1 blocker: inhibitors of human TRPML1 channel; 390,000 tested, 0.02% active; Q9GZU1; activity change, negative = inhibition, % (test concentration not listed); TRPML1-inducible cells, Ca2+ dye fluorescence, FDSS; active compounds read low; inhibition of EC80 agonist-evoked calcium signal; in the data active means activity change below about -50%; inconclusive means about -30% to -50%; inactive means above about -30%;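 note: stimulus is agonist 54-4 at its EC80 concentration; % is set by controls: 0 for no effect and ±100 for the full control effect; compound concentration not given in the record; the text of the record puts the active cut at -80%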
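Calcium fluorescence in TRPML1-DL cells induced overnight with Tet: a 110 s read after compound pin addition, then a 110 s antagonist read after challenge with 54-4 at 4 uM final (EC80).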
* = called active by the depositor; ? = inconclusive; . = not tested or not shown; [ ] = dose if it differs, or a comment. Rows were taken by chance. About 1% of those tested had a hit in this group.

SMILES	D2 PAM	PINK1 modulator	Six1-Eya2 blk	TRPML1 ag	D2 agonist	TRPML1 blocker
CC(C)CNc1ncnc2c1ncn2[C@H]1CN(CCc2ccccc2)C[C@@H](CO)O1	8.1	5.5%	5.6	-0.3	-1.7	.
N#Cc1cc2c([nH]c1=S)CCCCCC2	-23.3	.	2.5	0.6	-4.9	-10.0
C[N+]1(CCNC(=O)/C=N/O)CCCCC1	-4.2	-0.1%	4.2	0.1	-4.1	-4.9
CC(C)Cn1c2nc3ccccc3nc2c2c(=O)n(CCN3CCOCC3)cnc21	4.6	-0.5%	-3.6	0.0	-1.3	6.1
Cc1ccc(-c2nnn(CC(=O)Nc3ccccc3N3CCOCC3)n2)cc1	3.8	?	-2.8	-0.4	-2.0	-5.5
O=C(CC1C(=O)NCCN1C(=O)Nc1ccccc1)Nc1cccc(Cl)c1 (configuration not stated)	-21.6	0.2%	5.2	3.4	0.6	9.4
C=CCC1(C#N)C(=S)NC2=C(C(=O)CC(C)(C)C2)C1c1ccc(Br)cc1 (configuration not stated)	9.5	10.9%	-12.8	-0.6	-1.8	-3.8
O=C(c1nc2ccccn2c1CNCCCn1ncc2ccccc21)N1CCCC1	-7.0	0.5%	1.7	-0.3	-3.5	-3.1
Cc1nn(-c2ccccc2)c(C)c1NC(=O)COC(=O)c1ccc(Cl)c(N)c1	4.9	-4.6%	4.6	0.7	-2.8	-18.1
O=C(Nc1ncc(Cl)cc1Cl)c1c(F)cccc1Cl	-6.5	4.7%	-7.0	-0.7	-3.0	-28.1
CCC(C)NC(=O)COc1ccccc1[N+](=O)[O-] (configuration not stated)	8.2	2.0%	1.6	-0.5	-0.2	-17.3
CC12CC3CC(C)(C1)CC(C(=O)Nc1nn[nH]n1)(C3)C2	3.3	-5.1%[38.3 µM]	-4.2	0.4	-0.5	12.9
CCOC(=O)Cc1cc(C(=O)Nc2ccc(Br)cc2)sc1-c1ccc(C)cc1	.	1.0%	.	0.5	.	20.1
CCOC(=O)CC(NC(=O)Cn1nnc(-c2ccc(C(F)(F)F)cc2)n1)c1ccc(OC)cc1 (configuration not stated)	.	7.5%	.	2.3	.	-2.8
C=CCOc1cccc(CNc2ccc3[nH]c(=O)[nH]c3c2)c1	2.7	2.5%	-16.1	0.1	0.9	13.0

2 of these compounds in a different format:
| Molecule | D2 PAM | PINK1 modulator | Six1-Eya2 blk | TRPML1 ag | D2 agonist | TRPML1 blocker |
| --- | --- | --- | --- | --- | --- | --- |
| N#Cc1cc2c([nH]c1=S)CCCCCC2 | -23.3 | . | 2.5 | 0.6 | -4.9 | -10.0 |
| C[N+]1(CCNC(=O)/C=N/O)CCCCC1 | -4.2 | -0.1% | 4.2 | 0.1 | -4.1 | -4.9 |

Further compounds.
SMILES	D2 PAM	PINK1 modulator	Six1-Eya2 blk	TRPML1 ag	D2 agonist	TRPML1 blocker
CCOC(=O)C1(Cc2ccc(Cl)cc2)CCN(C(C)Cc2ccc(O)c(OC)c2)CC1 (configuration not stated)	-2.4	10.4%	-17.2	0.0	-1.8	2.9
Cc1ccc(C)c(NC(=O)CC2Oc3ccccc3NC2=O)c1 (configuration not stated)	-4.9	17.0%	14.9	-0.3	1.2	-15.1
CCOC(=O)N1CCN(C(=O)c2ccc3oc(CCc4ccccc4)nc3c2)CC1	-5.7	-0.5%	5.6	-0.5	-0.7	-0.3
COC(=O)c1[nH]c2ccc(F)cc2c1NS(=O)(=O)c1ccc(OC)cc1	-8.2	6.0%	0.6	1.1	-1.9	-1.6
CCOC(=O)C(NC(=O)Nc1ccccc1)(OCC)C(F)(F)F (configuration not stated)	-9.9	1.3%	-3.7	-0.2	-3.0	18.4
COC(=O)c1ccccc1NC(=O)Cn1nc(C)c2nn(-c3ccc(Cl)cc3)c(C)c2c1=O	.	-0.5%	.	0.1	.	3.4
CC(C)c1ccc(NC(=O)CSC2=Nc3ccccc3C3=NC(CC(=O)NCc4ccco4)C(=O)N23)cc1 (configuration not stated)	.	0.4%	.	2.5	.	-17.0
CCc1cc2c(=O)nc3n(c2s1)Cc1ccccc1/C3=C(/O)c1ccccc1Cl	-20.7	9.6%	-2.2	0.8	-3.7	32.0
Cc1ccccc1S(=O)(=O)NC1=NCCCCC1	-5.3	0.7%	2.8	0.0	-1.7	15.2
CCOC(=O)c1ccc(N2C(=O)CC(N(C)Cc3ccccc3)C2=O)cc1 (configuration not stated)	-5.2	0.3%	1.1	-0.4	-1.3	0.2
Cc1oc(=O)c(NC(=O)c2ccccc2)cc1C(=O)c1ccccc1	-22.8	1.6%	-0.7	0.6	-4.9	-12.0
Cc1cc(C)cc(OCC(=O)N2Cc3ccccc3CC2C(=O)O)c1 (configuration not stated)	-38.9	-1.6%	0.0	-0.2	1.2	10.3
Cc1c(NC(=O)c2ccc(Br)o2)cccc1-c1nc2ccccc2o1	.	5.5%	.	0.6	.	16.5
CCOC(=O)C1(Cc2cccc(Cl)c2)CCCN(C(=O)CCNC(C)=O)C1 (configuration not stated)	-19.1	0.5%	26.4	-1.5	-3.7	7.6
CCCNC(=O)COC(=O)c1[nH]c(C)c(C(=O)OCC)c1C	-11.5	6.2%	0.0	0.6	-1.6	2.1

An excerpt from above, showing only PINK1 modulator.
| molecule | PINK1 modulator |
| --- | --- |
| CCc1cc2c(=O)nc3n(c2s1)Cc1ccccc1/C3=C(/O)c1ccccc1Cl | 9.6% |
| Cc1c(NC(=O)c2ccc(Br)o2)cccc1-c1nc2ccccc2o1 | 5.5% |
| Cc1cc(C)cc(OCC(=O)N2Cc3ccccc3CC2C(=O)O)c1 (configuration not stated) | -1.6% |

Part of the list above in order of count of non-hydrogen atoms, smallest number first:
SMILES	D2 PAM	PINK1 modulator	Six1-Eya2 blk	TRPML1 ag	D2 agonist	TRPML1 blocker
Cc1oc(=O)c(NC(=O)c2ccccc2)cc1C(=O)c1ccccc1	-22.8	1.6%	-0.7	0.6	-4.9	-12.0
CCOC(=O)C1(Cc2cccc(Cl)c2)CCCN(C(=O)CCNC(C)=O)C1 (configuration not stated)	-19.1	0.5%	26.4	-1.5	-3.7	7.6
CCc1cc2c(=O)nc3n(c2s1)Cc1ccccc1/C3=C(/O)c1ccccc1Cl	-20.7	9.6%	-2.2	0.8	-3.7	32.0
CCOC(=O)C1(Cc2ccc(Cl)cc2)CCN(C(C)Cc2ccc(O)c(OC)c2)CC1 (configuration not stated)	-2.4	10.4%	-17.2	0.0	-1.8	2.9
CC(C)c1ccc(NC(=O)CSC2=Nc3ccccc3C3=NC(CC(=O)NCc4ccco4)C(=O)N23)cc1 (configuration not stated)	.	0.4%	.	2.5	.	-17.0

Remaining list, next part:
SMILES	D2 PAM	PINK1 modulator	Six1-Eya2 blk	TRPML1 ag	D2 agonist	TRPML1 blocker
CC(C)(C)c1ccc(OCCCCCCN2CCNCC2)cc1	-12.3	-1.1%	3.0	0.7	0.0	-13.4
COc1ccccc1NC(=O)CSc1nnc(CC(=O)Nc2ccccc2F)n1C	0.2	1.2%	10.3	1.2	0.3	17.8
Cc1oc2c(O)c(O)ccc2c(=O)c1-c1ccc(Cl)cc1	7.1	-1.2%	-9.2	0.0	11.2	46.9
Cc1[nH]c(=O)[nH]c(=O)c1S(=O)(=O)N1CCCCC1	-1.4	0.5%	-0.5	0.0	-2.5	31.0
O=C1[C@H](Cc2ccccc2)NCC=CC[C@@H](c2ccc(Cl)cc2)N1Cc1ccccc1	-5.3	2.8%	-7.2	4.4	-2.3	23.0
Cc1cc2nc(-c3ccco3)c(Cc3cccc(Cl)c3)n2c(C)c1Br	.	0.0%	?	-0.1	.	.
O=C(NC1CCCC1)C(c1ccccc1F)N(C(=O)c1csnn1)C1CC1 (configuration not stated)	-2.7	-0.6%	-3.5	-0.2	1.5	16.9
O=C(CNC(=O)c1cccs1)N/N=C/c1ccccc1[N+](=O)[O-]	-0.6	2.2%	-5.5	1.0	-2.5	-4.9
COc1cc(CN2CCN(Cc3cn(C)c4ccccc34)CC2CCO)cc(OC)c1 (configuration not stated)	-1.8	15.4%	-14.0	0.4	-2.7	6.2
COc1ccc(C(=O)C2CCCN(C(=O)c3cc(C4CC4)[nH]n3)C2)c(C)c1 (configuration not stated)	-0.6	0.5%	-0.2	-0.8	4.5	-5.1
Cc1cc(NC(=O)CSc2nc(=O)n(CCCN(C)C)c3c2CCCC3)no1	-10.0	-2.4%	5.0	-0.3	-4.2	0.9
CCNc1nc(NCC)nc(OCC(=O)O)n1	-1.7	1.2%	9.6	0.0	-3.1	-13.2
CCOc1ccccc1NC(=O)C1C2C=CC(O2)C1C(=O)O (configuration not stated)	-2.4	18.0%	8.7	1.4	-1.9	16.0
COc1ccc(-c2oc(NC(=O)CSc3ncn[nH]3)c(C#N)c2-c2ccc(OC)cc2)cc1	-1.3	9.1%[38.3 µM]	-4.4	2.7	-3.5	-11.1
COc1ccc(C(=O)NCc2ccc(Cl)cc2)cc1S(=O)(=O)N1CCCC1	-4.6	-1.1%	-1.8	1.0	2.2	37.2
Cc1cc(C(=O)NNC(=O)c2ccc(Cl)cc2Cl)c(C)o1	-18.1	0.7%	-1.8	-0.3	-3.2	-6.3
Clc1cccc(Nc2nc(-c3ccncc3)nc3ccccc23)c1	-6.3	-1.3%	-2.4	-0.2	-6.5	-5.7
O=C1OC[C@H]2CCCC[C@@H](CO)ON12	.	3.3%	8.4	0.3	-1.5	1.2
O=C(NCc1ccco1)c1ccc(-c2csnn2)cc1	-20.8	0.3%	6.5	-1.0	-4.7	7.3
O=C(CN1CCN(c2ccc(O)cc2)CC1)Nc1ccc(S(=O)(=O)N2CCCC2)cc1	27.7	1.6%	-7.9	-0.4	48.9*	-9.6
O=C(c1cc(COc2ccc(F)cc2Cl)on1)N1CCc2ccccc2C1	1.8	2.3%	8.3	3.6	0.1	27.8
CCOC(=O)c1[nH]c(C)c(CN(CCc2ccccc2)C(=O)CCC(=O)O)c1C	-12.5	-0.5%	-0.1	0.4	-3.4	0.6

Assay outcomes (PubChem)
